# D2 ag: human D2 receptor agonism in beta-arrestin assay; P14416; DiscoveRx PathHunter D2 beta-arrestin, luminescence, 90 min; 100% = 57 uM dopamine signal; activation, % (test concentration not listed); 0.084% of 360,000 active; in the data active = activation above about 40%; inconclusive = about 15% to 40%; inactive = below about 15%; also: compound concentration not given in the record; the text of the record calls up to 30% inactive
# Target sequence (P14416 whole entry, looked up): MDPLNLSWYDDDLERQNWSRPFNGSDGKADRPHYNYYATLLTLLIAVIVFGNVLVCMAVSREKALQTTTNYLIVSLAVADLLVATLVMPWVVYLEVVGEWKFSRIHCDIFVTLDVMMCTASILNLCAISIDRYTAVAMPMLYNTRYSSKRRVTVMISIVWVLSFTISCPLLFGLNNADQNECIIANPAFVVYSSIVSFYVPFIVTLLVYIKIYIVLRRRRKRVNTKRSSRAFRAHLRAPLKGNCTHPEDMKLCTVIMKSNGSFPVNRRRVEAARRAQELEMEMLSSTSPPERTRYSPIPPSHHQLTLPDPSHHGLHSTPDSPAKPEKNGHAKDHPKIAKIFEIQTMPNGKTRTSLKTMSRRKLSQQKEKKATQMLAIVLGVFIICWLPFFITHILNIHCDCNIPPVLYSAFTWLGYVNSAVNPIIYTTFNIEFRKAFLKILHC
#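 Agonist mode: compounds alone added to overnight-plated D2 PathHunter cells for 90 min at 37 C, with 57 uM final dopamine (EC100) defining full response. Beta-arrestin recruitment detected by chemiluminescent reagent, read after 1 h at ambient temperature.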
# ClpP mod: qHTS Assay for Activators of ClpP. 1.9% of 340,000 active. AID 651965, 2013. purified B. subtilis ClpP, FRET peptide cleavage, 20 min. ATP-dependent Clp protease proteolytic subunit (Bacillus subtilis (strain 168)), P80244. Potency, µM (titrated, usually from 57.5 µM), for the others: at the top dose activity change, negative = active; active = well fitted falling curve with a large enough effect; inconclusive = small, poorly fitted or top-dose-only effect; inactive = no such curve, though single readings can be large or run the other way; also: potency is read from the fitted curve at half-maximal effect; the source files actives as falling curves though it sought activators and does not explain the sign; nearly all actives have a fitted effect of over 65% in size; many hits overshoot -100%
# Target sequence (P80244 whole entry, looked up): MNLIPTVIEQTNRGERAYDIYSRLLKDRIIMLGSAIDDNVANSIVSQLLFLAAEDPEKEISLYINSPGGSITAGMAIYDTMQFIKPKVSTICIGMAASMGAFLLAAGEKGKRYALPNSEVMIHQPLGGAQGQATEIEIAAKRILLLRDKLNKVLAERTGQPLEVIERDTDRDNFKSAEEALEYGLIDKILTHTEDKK
#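 Buffer: 100 mM Tris/HCl pH8, 100 mM KCl, 0.05% low protease BSA, 2.5% glycerol, 0.01% Tween-20. ClpP 10 microg/mL final; 20 min RT; delta FRET normalized to ADEP and DMSO controls.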
# PINK1 modulator: changes PINK1 expression | PINK1 immunofluorescence, high-content cytometry, 24 h | Potency, µM (titrated, usually from 76.6 µM), for the others: top-dose activation (PINK1 increase), most hits filed as activators | 0.2% of 410,000 active | AID 624263; active = well fitted activation curve with a large enough effect; inconclusive = small, poorly fitted or top-dose-only effect; inactive = flat fitted curve, though single readings scatter; cell line not stated here;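 also: potency is read from the fitted curve at half-maximal effect; % of control where 0% means no effect; nearly all actives have a fitted effect of over 65% in size; a mitochondrial uncoupler was the plate control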
#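 Stable cell line treated 24 h with compounds at 5 concentrations (CCCP controls), then fixed and immunostained for PINK1 plus nuclear and cell stains; PINK1 immunofluorescence quantified by laser-scanning microplate cytometry.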
# gsp ag: activates gsp, the McCune-Albright syndrome mutation; 0.13% of 340,000 active; Potency, µM (doses to about 76.9 µM), for the others: at the highest dose activation (cAMP increase), usual class: activators; gsp mutant cells, cAMP HTRF, 30 min; control for the full effect not named in the record; active = well fitted activation curve with a large enough effect; inconclusive = small, poorly fitted or top-dose-only effect, or another doubt; inactive = no such curve, though single readings can be large or run the other way; cell line not stated here;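 also: phosphodiesterase inhibitor Ro 20-1724 added with compounds to block cAMP breakdown; potency is read from the fitted curve at half-maximal effect; nearly all actives have a fitted effect of over 60% in size; about a fifth of the inactives were tested at one dose only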
#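 Cells in DMEM/10% FBS with G418 were pretreated with compounds in DMSO plus […] (300 uM stock) for 30 min at 37C. cAMP was measured by HTRF (cAMP-d2 plus anti-cAMP antibody-K) after 30 min at room temperature.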
# gsp antagonist: antagonists of gsp mutant (McCune-Albright syndrome) | gsp-mutant cells, cAMP HTRF, 30 min; control for the full effect not named in the record | Potency, µM (series often up to 76.9 µM), inactives show at the top dose activity change, negative = inhibition, hits mostly inhibitors | 0.4% of 340,000 active | AID 624288; active = falling curve of any shape with a large fitted effect; inconclusive = falling curve, mostly with a smaller effect; inactive = flat or rising curve; cell line not stated here;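 also: intracellular cAMP measured with PDE inhibitor Ro 20-1724 present during compound exposure; potency is read from the fitted curve at half-maximal effect; % is scaled to controls: 0 for no effect and ±100 for the full control effect; nearly all actives have a fitted effect of over 65% in size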
#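 Measurement of cellular cAMP by homogeneous time-resolved fluorescence following a 30 min compound exposure at 37C. The PDE inhibitor […] was present throughout; the assay buffer was DPBS with 0.05% BSA and 0.005% Tween 20.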
# Menin-MLL FL inh: inhibitors of human menin-MLL interaction, wild-type MLL peptide; Fluorescence polarization, fluorescein-MLL peptide displacement from menin; FP activity change, % at 61.4 µM; 290,000 tested, under 10 active; AID 1766; inconclusive = falling polarisation curve, or a change in total fluorescence; inactive = total fluorescence flat and polarisation flat or rising; no compound was filed as active; the % refers to the polarisation; negative = inhibition;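 also: % of control where 0% means no effect; inhibitors lower the polarisation; unlabelled MLL peptide was the positive control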
# Sfp PPTase inh: Sfp phosphopantetheinyl transferase inhibition; Q9F4F7; Biochemical Sfp PPTase activity, qHTS; Potency, µM, for inactives: max response, negative = inhibition, most hits filed as inhibitors; 3.5% of 310,000 active; active = well fitted inhibition curve with a large enough effect; inconclusive = small, poorly fitted or top-dose-only effect, or another doubt; inactive = no such curve, though single readings can be large or run the other way;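 also: the enzyme is Sfp with the accession as filed and its product quenches rhodamine fluorescence; potency is read from the fitted curve at half-maximal effect; 0% = enzyme reaction without inhibitor and -100% = no enzyme wells; top concentration of the series not given in the record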
#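 After 15 min at room temperature with compound, 15 nM Sfp received 5 uM rhodamine-CoA plus 12.5 uM BHQ-2-ybbR (50 mM Hepes pH 7.6, 10 mM MgCl2). Rate came from the fluorescence difference over 30 min, ex 525/em 598 nm.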
# * marks the source's active call; other numbers are inactive results; ? = inconclusive; · = no result given; & = joins results of further samples; [ ] = dose if it differs, or a comment.
SMILES,D2 ag,ClpP mod,PINK1 modulator,gsp ag,gsp antagonist,Menin-MLL FL inh,Sfp PPTase inh
COc1cccc(CNC(=O)c2ccc(NC(=O)CC3SC(N4CCCCC4)=NC3=O)cc2)c1 (stereo unspecified),-5.6,-2.6%,0.5%,-39%[inhibitor],-13%,·,·
O=C(O)c1ccccc1NCN1C(=O)C2CC=C(Cl)CC2C1=O (stereo unspecified),-1.4,?,-0.9%,20%,9%,?,18%
CCOC(=O)CSc1nnc(SCCN2C(=O)c3ccccc3C2=O)s1,-0.3,-2.4%,-1.2%,-9%,5%,0.5,-5%
CCOC(=O)C1CCN(C(=O)NC23CC4CC(CC(C4)C2)C3)CC1,-2.4,0.8%,-0.7%[38.3 µM],-1%,-2%,-0.6,-2%
CC1(C)Cc2cccc(OCC(=O)Nc3ccccc3N3CCOCC3)c2O1,1.6,-1.2%,4.6%,-51%[inhibitor],0%,3.3,-3%
COc1ccc(N2CCN(C(=O)Cn3nnc(-c4ccc(N(C)C)cc4)n3)CC2)cc1,-4.9,·,-1.3%,0%[15.4 µM],8%,-2.4,11%
C/C(Cl)=C\Cn1c(Nc2ccccc2)nc2c1c(=O)n(C)c(=O)n2C,2.9,-2.0%,-1.0%,2%,6%,0.8,1%
NS(=O)(=O)c1ccc(CNC(=O)c2cc(S(=O)(=O)N3CCOCC3)c(Cl)cc2Cl)cc1,-6.3,-3.8%,0.0%,2%[15.4 µM],3%,·,·
Cc1ccc(N2CC(C(=O)Nc3nnc(C)s3)CC2=O)cc1 (stereo unspecified),-1.6,2.6%,·,-34%[inhibitor],-6%,1.5,17%
Cc1ccc([N+](=O)[O-])cc1S(=O)(=O)NCCc1c(C)[nH]c2c(C)cccc12,-3.3,-0.7%,6.1%,-40%[inhibitor],-8%,1.3,-12%
Cc1ccc(N2C(=O)c3n[nH]c(C)c3C2c2cccnc2)cc1 (stereo unspecified),0.8,-1.1%,-4.9%[38.3 µM],-1%,-17%,0.3,7%
CC(=O)Nc1ccc(C(=O)N/C(=C/c2ccccc2)C(=O)N2CCCCC2)cc1,1.0,·,3.2%,-10%[15.4 µM],-16%,·,8%
Nc1cc(S(=O)(=O)c2ccc(O)c(N)c2)ccc1O,1.0,1.0%,1.0%,29%,6%,5.2,-5%
Cc1ccccc1-c1cc2nc(NCc3ccc(N(C)C)cc3)n(C)c(=O)c2s1,8.3,-21%,5.0%,·,·,·,·
CCOc1ccc(S(=O)(=O)N(C)CC(=O)N2CCCC2)cc1,0.4,·,3.0%,-60%[inhibitor],4%,2.0,4%
CCC(=O)c1ccc(OCC(=O)Nc2cc(S(=O)(=O)N3CCCCC3)ccc2OC)cc1,0.6,1.8%,2.0%,-18%,?,·,-2%
O=C(N/N=C\c1cc2c(cc1[N+](=O)[O-])OCO2)c1cccs1,-2.0,0.3%,29%,-20%,?,·,17%
CC(C)CCn1c(CN2CCN(C(=O)c3ccco3)CC2)nc2c1c(=O)n(C)c(=O)n2C,0.0,-2.0%,1.6%,?,-11%,-1.2,14%
COC(=O)c1c(NC(=O)CSc2nc(-c3ccco3)cc(C(F)(F)F)n2)sc2c1CCCC2,-2.9,-3.9%,1.2%[38.3 µM],1%,9%,2.7,4%
COc1ccc(NC(=O)/C(C#N)=C/c2ccc(Br)o2)cc1,-3.8,0.2%,-1.5%[38.3 µM],?,-2%,15,?

# Three records picked at random from those above:
SMILES,D2 ag,ClpP mod,PINK1 modulator,gsp ag,gsp antagonist,Menin-MLL FL inh,Sfp PPTase inh
CC(=O)Nc1ccc(C(=O)N/C(=C/c2ccccc2)C(=O)N2CCCCC2)cc1,1.0,·,3.2%,-10%[15.4 µM],-16%,·,8%
COc1ccc(N2CCN(C(=O)Cn3nnc(-c4ccc(N(C)C)cc4)n3)CC2)cc1,-4.9,·,-1.3%,0%[15.4 µM],8%,-2.4,11%
CCOC(=O)CSc1nnc(SCCN2C(=O)c3ccccc3C2=O)s1,-0.3,-2.4%,-1.2%,-9%,5%,0.5,-5%

# Next structures
SMILES,D2 ag,ClpP mod,PINK1 modulator,gsp ag,gsp antagonist,Menin-MLL FL inh,Sfp PPTase inh
Cc1cc(-c2nnc3sc(-c4ccc(Cl)cc4Cl)nn23)n[nH]1,-4.2,-1.4%,14%,-3%,2%,-0.2,-14%
CCCCSCc1[nH]c(=O)[nH]c1C(=O)CCCCC(=O)OCC,-5.6,-4.9%,2.1%,-33%[inhibitor],-6%,-0.1,-1%
COCc1nnc(SCC(=O)NC(C)c2ccccc2)n1-c1ccccc1 (stereo unspecified),-3.7,0.6%,1.5%[38.3 µM],-18%,6%,3.9,4%
COc1cc(C(=S)N2CCOCC2)ccc1OC(=O)c1cc(OC)c(OC)c(OC)c1,8.6,0.8%,8.2%,-2%,6%,1.6,50µM*
Cc1cc(NC(=O)c2ccc(F)cc2)n(-c2ccccn2)n1,-3.3,0.5%,2.0%,9%[15.4 µM],?,2.3,-22%
C/C(=N\NC(=O)c1ccc(F)cc1)c1ccccn1,-2.5,-0.8%,?,?,2%,-1.6,9%
Cc1ccc(C)c(S(=O)(=O)N2CCN(C(=O)CSc3ccccc3)CC2)c1,-0.9,-0.6%,-4.1%,-82%[inhibitor],5%,·,22%
CC(Oc1ccc2c3c(c(=O)oc2c1)CCCC3)C(=O)NCc1ccccn1 (stereo unspecified),3.7,4.3%,-1.0%,?,-5%,·,17%
COc1ccc(-c2nc3n(c2C)Cc2ccccc2-3)cc1,-2.9,·,3.2%,0%[15.4 µM],-7%,6.9,4%
CCn1c(-c2cc(Cl)ccc2OC)n[nH]c1=S,-1.4,-2.9%,-1.0%,24%,-14%,-1.4,-5%
CCOc1ccc(NS(=O)(=O)c2ccc(NS(=O)(=O)c3ccccc3)cc2)cc1,1.5,-3.8%,-0.5%[38.3 µM],11%,-16%,1.0,10%
O=C(c1ccc(Oc2ccc(Cl)cc2)c([N+](=O)[O-])c1)N1CCCC1,?,-1.7%,0.4%,?,-25%,0.9,-11%
COc1cc(/C=C/C(=O)OCC(=O)NCCC2=CCCCC2)cc(OC)c1OC,0.9,4.0%,-0.8%,-5%[15.4 µM],-19%,·,·
CN1CCN(C(=O)c2ccccc2-c2ccccc2C(=O)O)CC1,-0.1,-1.5%,5.2%[38.3 µM],3%,8%,6.1,-10%
CC(OC(=O)Cn1[nH]c(=O)c2ccccc2c1=O)C(=O)Nc1ccc(F)cc1Cl (stereo unspecified),-5.5,-1.9%,1.4%,38%,-12%,·,·
CC(CCc1ccccc1)NC(=O)C(=O)NCCO (stereo unspecified),-0.9,-1.9%,5.1%[38.3 µM],-9%,5%,0.4,22%
Nc1nc(CSCCO)nc(Nc2ccc(F)cc2)n1,0.1,0.2%,-1.8%,-4%,19%,7.7,8%
O=C1NC(NS(=O)(=O)c2ccccc2)(C(F)(F)F)C(=O)N1CCc1ccccc1 (stereo unspecified),-1.9,0.7%,-0.6%&-0.7%,-3%[15.4 µM],6%,0.4,15%
COc1ccc(N2CCN(CC(=O)c3c[nH]c4ccccc34)CC2)cc1,-3.5,-0.6%,8.9%,7%[15.4 µM],-1%,-1.2,21%
COc1ccc(N2CCN(C(=O)C3CCCN(S(=O)(=O)c4c(C)noc4C)C3)CC2)cc1 (stereo unspecified),-1.3,·,0.0%,-4%[15.4 µM],-18%,-2.5,7%
COc1ccc(S(=O)(=O)NCCNC(=O)N2CCOCC2)cc1,-4.7,-1.0%,1.6%,?,8%,·,18%
CSc1nc(N2CCOCC2)c2c3c(sc2n1)CCC3,2.1,0.5%,3.6%,0%,-23%,0.5,5%
COc1ccc(SCCN2CC[C@@H](O)CCC2=O)cc1,-7.3,-1.5%&4.0%,-0.3%,29%,-4%,·,·
CN(CCCC(=O)Nc1nccs1)S(=O)(=O)c1ccc(Cl)cc1,-0.1,0.6%,1.6%,?,1%,-0.6,13%
OCC1(CCCc2ccccc2)CCN(Cc2ccc(F)cc2)CC1,-3.2,·,0.7%,-22%[15.4 µM],6%,-2.2,10%
COc1ccc(NS(=O)(=O)c2cc(NC(=O)CNC(=O)c3cccc(OC)c3)ccc2C)cc1,-1.6,-1.4%,3.4%,13%,18%,5.5,12%
C=CCNC(=O)c1ccc(Cl)cc1Cl,0.1,1.1%,6.0%,12%,13%,-2.4,10%
O[C@@H]1CN(Cc2cccs2)[C@@H](c2ccccc2)C[C@H]1n1cc(C2CC2)nn1,-0.4,-1.5%,3.3%,?,·,·,·
COc1ccc(CCN2CC(C(=O)OCC(=O)Nc3c(C)nn(-c4ccccc4)c3C)CC2=O)cc1OC (stereo unspecified),2.6,·,4.4%,-9%[15.4 µM],-10%,·,·
CNC(=O)C1CCC(=O)N1Cc1c[nH]c2ccccc12 (stereo unspecified),-4.7,-2.8%,2.8%,·,·,·,·
Cc1ccccc1NC(=O)C1(NC(=O)c2cccc(N3C(=O)CSC3c3ccccc3)c2)CCCCC1 (stereo unspecified),-1.9,-3.2%,1.5%,-20%,-16%,0.1,11%
CC(C)(C)c1ccc(OCCC(=O)NNC(=O)c2ccncc2)cc1,0.9,-2.3%,-0.6%,-1%,5%,·,·
Cc1cc(C)c2nc(SCC(=O)NNC(=O)c3ccco3)c(C)cc2c1,-1.2,·,4.0%,-42%[inhibitor],-7%,-3.4,-8%
CCC(C)NC(=O)CSc1nc2ccccc2c(=O)n1CCCC(=O)NCC1CCCO1 (stereo unspecified),-3.2,1.6%,-1.9%,0%,14%,0.6,13%
COc1cc(CCNC(=O)CCCn2c(=O)c3cccn3c3cccnc32)cc(OC)c1OC,0.4,-22%,0.7%,12%,4%,2.3,13%
CCCCc1nc2cc(C(=O)N3CCCCC3C(=O)OC)ccc2o1 (stereo unspecified),-0.7,-0.6%,-0.9%,-44%[inhibitor],9%,-0.7,16%
COc1ccc(-c2nc(CS(=O)CC(=O)NCCCN3CCCC3)c(C)o2)cc1OC (stereo unspecified),-2.2,?,-0.5%,3%,-8%,2.8,9%

# Assay outcomes from PubChem.
